# From PubChem
# PABP FP inh = PABP-poly(A) binding inhibition. P11940. PABP-poly(A) RNA binding, fluorescence polarization. inhibition, % at 35 µM. hit rate 1% among 290,000. AID 2014;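 active = 50% or more with normal probe brightness, or confirmed in later tests; inconclusive = above 50% with abnormal brightness, or retests that disagree; inactive = below 50% or failed in later tests; about a fifth of its hits are not listed in these tables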;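 also: calls also rest on retests at 20 µM and on dose response follow-up; controls were probe without protein and protein plus probe with vehicle; some compounds called inactive have numbers as strong as hits; many hits fall short of the cut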
# Target sequence (P11940 whole entry, looked up): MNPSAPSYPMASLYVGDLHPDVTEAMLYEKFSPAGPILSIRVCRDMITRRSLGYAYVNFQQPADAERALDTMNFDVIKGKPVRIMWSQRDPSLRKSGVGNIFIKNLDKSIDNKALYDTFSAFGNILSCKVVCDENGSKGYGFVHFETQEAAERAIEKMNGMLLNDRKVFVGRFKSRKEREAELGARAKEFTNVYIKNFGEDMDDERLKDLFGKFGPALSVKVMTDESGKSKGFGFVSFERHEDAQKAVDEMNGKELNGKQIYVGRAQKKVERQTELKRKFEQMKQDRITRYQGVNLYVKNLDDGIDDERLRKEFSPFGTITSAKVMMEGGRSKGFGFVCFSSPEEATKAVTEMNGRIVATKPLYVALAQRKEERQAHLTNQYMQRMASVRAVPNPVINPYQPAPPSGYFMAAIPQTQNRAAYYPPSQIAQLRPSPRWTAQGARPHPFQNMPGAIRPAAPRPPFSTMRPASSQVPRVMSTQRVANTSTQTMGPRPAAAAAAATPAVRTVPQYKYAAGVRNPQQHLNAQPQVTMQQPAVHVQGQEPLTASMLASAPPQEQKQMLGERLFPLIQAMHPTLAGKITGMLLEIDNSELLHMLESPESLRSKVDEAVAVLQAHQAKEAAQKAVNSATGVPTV
# Yeast UUG start = yeast start codon fidelity modulation. S. cerevisiae UUG-firefly luciferase reporter, luminescence/redox ratio. activity score, % at 18.7 µM. hit rate 0.13% among 350,000;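 active = replicate mean at a twofold rise or more, about +100% in these data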;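 also: firefly luciferase made from a UUG start codon reports start codon fidelity; reporter light over untreated wells divided by growth signal over untreated wells; some hits fall short of that in this replicate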
# Rce1 inhib = inhibitors of yeast Ras-converting enzyme. hit rate 0.27% among 290,000. yeast membranes, quenched prenylated peptide cleavage fluorescence. Q03530. calls only;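 active = fall in fluorescence gain of 50% or more versus controls, with final raw signal at or below 3038400; inconclusive = same 50% fall but final raw signal above 3038400; inactive = fall in fluorescence gain under 50%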;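 also: plate controls were neutral control wells for no effect and wells lacking membranes for full effect; tested at 10 µM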
# MT1-MMP act inh = MT1-MMP (human) activation inhibition. GFP/RFP ratio change, % at 20 µM. HT1080 RFP-PRO-GFP cells, GFP/RFP ratio fluorescence, overnight; percent of plate control window, DMSO zero. hit rate 0.061% among 360,000. AID 651647;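 active = GFP/RFP ratio change of at least 30% with cell ATP level not reduced by more than half and red fluorescence within 50% of control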; also: strong numbers were not always called active
#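 system = RFP-PRO-GFP reporter HT1080 cells | dosing = 20 µM single dose, 1% DMSO | timing = overnight cell settling, then overnight compound exposure, 37 °C, 5% CO2 | read-out basis = GFP/RFP fluorescence ratio | controls = DMSO and RFP-L50D-GFP cell wells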
# HIV Env fusion = blocks HIV Env-driven cell-cell fusion; HeLa-JRFL Env/CEM21 cell fusion, luciferase; inhibition, % at 12.3 µM; hit rate 1.1% among 360,000;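 active = mean replicate inhibition score of at least 50 and every replicate individually at or above 50; inconclusive = only one of the two criteria met; inactive = mean below 50 and not all replicates reaching 50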;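 also: 0% = plate neutral controls and 100% = maraviroc near 300 nM; one replicate is shown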
# eIF4H FP inh = inhibitors of RNA binding by human eIF4H; Q15056; eIF4H fluorescence polarization binding assay; inhibition, % at 35 µM; hit rate 0.94% among 290,000;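 active = 50% or more with normal probe brightness, or confirmed in later tests; inconclusive = above 50% with abnormal brightness, or retests that disagree; inactive = below 50% or failed in later tests; about a fifth of its hits are not listed in these tables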;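 also: calls also rest on retests at 20 µM and on dose response follow-up; 0% = protein and probe with vehicle and 100% = probe without protein; strong numbers were not always called active; many hits fall short of the cut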
# CSC inhib = cancer stem cell inhibition. inhibition, % at 7.5 µM. cancer stem cell-like cells viability, luminescence. hit rate 1.1% among 300,000. AID 2717;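 active = mean at 75% or more and at least half the replicates too; inconclusive = mean and replicates disagree; tested in HMLE shEcad cells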;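 also: 0% = median of negative and 100% = median of positive control wells; the first replicate is given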
# MT1-MMP act inh RFP = also measured in MT1-MMP act inh; calls as there; RFP signal change, %; measured here: RFP expression control read;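 0 = vehicle wells; hits needed this value within 50% of zero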
# * = called active by the depositor; i = inactive; u = inconclusive; x = no result given. Outcome played no part in choosing rows (roughly 2.9% active in at least one column).
canonical_smiles	HIV Env fusion	Yeast UUG start	Rce1 inhib	MT1-MMP act inh	eIF4H FP inh	MT1-MMP act inh RFP	PABP FP inh	CSC inhib
COc1ccccc1OCC(=O)Nc1ccc(S(=O)(=O)NC(C)=O)cc1	x	8	i	1	-4	0	12	-3
O=C(CN1CCN(Cc2ccc(F)cc2)CC1)Nc1nc2ccccc2s1	1	-23	i	6	6	-8	0	1
COc1ccccc1-n1c(SCC(=O)c2ccc(O)cc2O)nc2cc([N+](=O)[O-])ccc21	u	x	i	0	16	2	-1	x
O=C(Cn1ncc2c3ccccc3n(Cc3ccc(F)cc3)c2c1=O)N1CCN(c2ncccn2)CC1	7	2	i	3	-2	-5	-9	-6
CCOC(=O)C1CCN(C(=O)CN(Cc2ccc(Cl)cc2)S(C)(=O)=O)CC1	x	2	i	-1	7	-3	-7	-13
O=C(O)[C@H]1Cc2ccccc2CN1S(=O)(=O)c1ccc(F)cc1	1	-18	i	-3	4	3	-6	1
O=S(=O)(Cc1c(F)cccc1Cl)c1ncn[nH]1	2	x	i	-4	-4	-2	-2	-14
COc1cc(NCCCn2cnc(C(=O)Nc3ccc(C)c(C)c3)n2)cc(OC)c1OC	-9	7	x	2	x	6	x	x
CC(C)COC(=O)Nc1ccccc1C(=O)N1CCOCC1	x	-10	i	-4	0	4	-8	-9
C/C(=C\c1cccs1)C(=O)c1c(C)cc(C)[nH]c1=O	1	x	i	1	-5	-1	9	-1
C[C@H](NC(=O)C1CCC(CNC(=O)[C@@H]2CCCN2C(=O)OC(C)(C)C)CC1)C(=O)O (some centres not stated)	-12	-9	i	-3	4	-1	-5	4
O=C(O)C(Cc1ccccc1)NC(=O)C(Cc1ccccc1)NC(=O)C12CC3CC(CC(C3)C1)C2 (configuration not stated)	-9	2	i	0	x	-4	x	5
CC1CCC2(CC1)NC(=O)N(NC(=O)c1cccc(N(C)C)c1)C2=O (configuration not stated)	-8	-16	x	2	x	2	x	-2
C=CCCC(=O)N1C[C@H]2CON(C)[C@H]2C[C@H]1c1cccc(Oc2ccccc2)c1	3	1	x	-2	x	-1	x	x
COc1c2ccccc2c(OC)c2ccccc12	6	x	i	-2	2	0	-7	2
COc1ccc(CCN2CC(C(=O)NCCc3ccccc3C)CCC2=O)cc1 (configuration not stated)	-3	-16	i	2	-5	9	14	x
Cc1ccccc1-c1nc(CS(=O)(=O)CC(=O)NC2CC2)c(C)o1	13	-20	i	0	-2	1	-6	-6
Cc1[nH]c2ccccc2c1/C=N\NC(=O)Cn1nnc(-c2ccccc2)n1	2	x	i	0	-6	3	4	-8
Cc1ccc(C(=O)NNC2=Nc3cc([N+](=O)[O-])ccc3OC2)cc1	12	-10	i	4	-11	-1	-4	26
Cc1onc(-c2ccccc2Cl)c1C(=O)NC(C)c1ccccc1 (configuration not stated)	-5	-12	i	-3	5	-2	6	-20
CCCCn1nnc(NC(=O)COc2cc(C)ccc2C(C)C)n1	x	-12	i	-2	0	-1	-4	-17
Oc1ccc(F)c2cccnc12	2	-4	i	0	23	0	-3	8
COC(=O)Cc1ccc(NC(=S)N2CCN(CCO)CC2)cc1	-33	x	i	-3	x	-2	x	-17
COC(=O)C(Cc1cccc(C)n1)(c1ccccc1)c1ccccc1	31	-15	i	-4	3	-2	15	11
CCN1CCN(S(=O)(=O)c2ccc(Cl)c(C(=O)Nc3ccccc3N3CCCC3)c2)CC1	80*	-13	i	-2	x	-3	x	x
Cc1ccc([C@H]2C[C@@H](O)[C@H](n3cc(COC(=O)c4ccccc4)nn3)CN2C(=O)c2cccs2)cc1	-125	3	x	0	x	4	x	x
CCOC(=O)C1(Cc2ccc(Cl)cc2)CCN(C(=O)C2CCCO2)CC1 (configuration not stated)	-7	20	x	x	-1	x	3	-17
C/C(=N\Nc1nc(N)cc(Cl)n1)c1cccc([N+](=O)[O-])c1	x	-24	i	19	1	5	-8	-11
CCOC(=O)[C@H]1[C@H]2COc3cc(OC)ccc3[C@@H]2N2C(=O)CN(C)C(=O)[C@@]12C	-37	-16	x	1	x	3	x	-16
O=C1c2cccc3c(O)ccc(c23)C(=O)N1Cc1ccccc1	x	-12	i	-217	u	-2	u	20

# Part of the list above in order of molar mass, low to high.
canonical_smiles	HIV Env fusion	Yeast UUG start	Rce1 inhib	MT1-MMP act inh	eIF4H FP inh	MT1-MMP act inh RFP	PABP FP inh	CSC inhib
Oc1ccc(F)c2cccnc12	2	-4	i	0	23	0	-3	8
O=C1c2cccc3c(O)ccc(c23)C(=O)N1Cc1ccccc1	x	-12	i	-217	u	-2	u	20
C/C(=N\Nc1nc(N)cc(Cl)n1)c1cccc([N+](=O)[O-])c1	x	-24	i	19	1	5	-8	-11
Cc1ccc(C(=O)NNC2=Nc3cc([N+](=O)[O-])ccc3OC2)cc1	12	-10	i	4	-11	-1	-4	26
CCCCn1nnc(NC(=O)COc2cc(C)ccc2C(C)C)n1	x	-12	i	-2	0	-1	-4	-17
COC(=O)Cc1ccc(NC(=S)N2CCN(CCO)CC2)cc1	-33	x	i	-3	x	-2	x	-17
Cc1onc(-c2ccccc2Cl)c1C(=O)NC(C)c1ccccc1 (configuration not stated)	-5	-12	i	-3	5	-2	6	-20
Cc1ccccc1-c1nc(CS(=O)(=O)CC(=O)NC2CC2)c(C)o1	13	-20	i	0	-2	1	-6	-6
CCOC(=O)[C@H]1[C@H]2COc3cc(OC)ccc3[C@@H]2N2C(=O)CN(C)C(=O)[C@@]12C	-37	-16	x	1	x	3	x	-16
COc1ccc(CCN2CC(C(=O)NCCc3ccccc3C)CCC2=O)cc1 (configuration not stated)	-3	-16	i	2	-5	9	14	x
CCN1CCN(S(=O)(=O)c2ccc(Cl)c(C(=O)Nc3ccccc3N3CCCC3)c2)CC1	80*	-13	i	-2	x	-3	x	x
Cc1ccc([C@H]2C[C@@H](O)[C@H](n3cc(COC(=O)c4ccccc4)nn3)CN2C(=O)c2cccs2)cc1	-125	3	x	0	x	4	x	x

# Later entries
canonical_smiles	HIV Env fusion	Yeast UUG start	Rce1 inhib	MT1-MMP act inh	eIF4H FP inh	MT1-MMP act inh RFP	PABP FP inh	CSC inhib
O=C(c1ccccc1)N1CCN(C2c3cccc4cccc(c34)C2NS(=O)(=O)c2ccccc2)CC1 (configuration not stated)	-76	-17	i	-16	-12	-13	-4	0
CCN(CC(=O)Nc1ccc(NC(C)=O)cc1)CC(=O)Nc1cccc(Cl)c1	-3	-3	i	2	-4	2	3	-8
CN(C(=O)C1CCCCC1)C1(C)CCS(=O)(=O)C1 (configuration not stated)	x	x	i	2	x	5	x	11
CC(C)c1onc(C(=O)Nc2cccnc2Cl)c1[N+](=O)[O-]	-8	x	i	-1	1	-1	-19	-7
Cc1cc(C)c(NC(=O)COC(=O)C2=COCCO2)c(C)c1	8	-13	x	3	x	5	x	x
CC(Sc1ncn[nH]1)C(=O)NCc1ccccc1 (configuration not stated)	-21	-34	i	4	-3	8	1	x
CCc1ccc(OCc2nnc(SCC(=O)NCC3CCCO3)n2C)cc1 (configuration not stated)	5	-25	i	3	-16	2	27	-9
Cc1ccc(C)c(OCC(=O)Nc2cc(C)on2)c1	-42	57	i	-1	0	3	-23	1
COc1ccccc1CNC(=O)CSc1nnc2c(Cl)cc(C(F)(F)F)cn12	-14	-9	i	2	2	3	14	6
Cc1nn(CCC#N)c(C)c1Oc1ccccc1O	-2	-4	i	4	-11	4	-5	-3
COc1cc2c(cc1OC)CN(CC(=O)Nc1ccc(Cl)c(S(=O)(=O)N(C)C)c1)CC2	x	x	i	-2	10	0	-3	-8
CCC(CC)C(=O)N(C)c1c(C)nc2c(OCC(=O)C(C)(C)C)cccn12	6	-22	x	0	x	8	x	x
COc1ccc(Cl)cc1NC(=O)c1cnc2sccn2c1=O	-27	7	i	0	-3	2	-6	-2
O=C1CS(=O)CN1c1ccc(Oc2ccccc2)cc1 (configuration not stated)	-4	-2	i	4	-5	1	0	-9
CC[C@@]12C(=O)N(c3cccc(F)c3)C(=O)N1[C@H](c1ccc(F)cc1)[C@@H]1C(=O)N(C3CCCCC3)C(=O)[C@@H]12	x	14	i	0	2	0	-2	-4
COc1ccc(C(=O)N2CCCC(CNC(=O)c3ccccc3Cl)C2)o1 (configuration not stated)	-15	-3	i	-2	-10	4	-9	-6
O=C(Nc1c2c(nc3c1CCC3)CCCC2)c1ccccn1	-4	x	i	0	2	2	-3	-10
Cc1ccc(-c2nnn(CC(=O)NCCC3=CCCCC3)n2)cc1	6	-3	i	5	6	-2	8	-12
CC1(C)Cc2c(c(N3CCCC3)[nH]c(=S)c2C#N)CO1	x	x	i	x	-4	x	1	-3
C=CCNC(=O)NC(=O)c1csc([N+](=O)[O-])c1	0	-38	i	5	-8	-4	1	-6
CCCCN(C(=O)c1cccc(S(=O)(=O)N2CC(C)OC(C)C2)c1)c1c(N)n(CCCC)c(=O)[nH]c1=O (configuration not stated)	5	-12	i	-2	1	1	3	-12
C=CCNC(=S)N(CC)c1cccc2ccccc12	17	x	i	1	1	1	-2	6
CCCn1c(N)c(N(CCOC)C(=O)c2cc3c(s2)CCCCC3)c(=O)[nH]c1=O	9	-1	i	-2	-12	-3	-5	-10
O=C(c1cccc(Cl)c1)N1CCn2c1nc1ccccc12	0	-18	i	2	-6	5	-2	-1
CNC(=O)CSc1nnc(-c2ccc3c(c2)OCO3)n1C	-11	x	i	0	-2	3	0	-1
O=C(NC(NC1CCS(=O)(=O)C1)C(Cl)(Cl)Cl)c1ccc(Br)cc1 (configuration not stated)	29	-7	i	-5	-3	-1	-3	12
Clc1cc(Cl)cc(CN2CCSCC2)c1	8	x	i	0	7	2	5	-9
C=C(C)c1cccc(C(C)(C)NC(=O)Nc2ccc(C(C)=O)cc2)c1	6	-17	i	-3	-8	-4	-4	-10
CCOc1ccccc1NC(=O)CCCN1C(=S)NC(C)(C)CC1C (configuration not stated)	7	-33	i	4	-6	3	-6	-13
COc1ccc(C(C(=O)NC(C)(C)C)N(Cc2cccnc2)C(=O)CCC(=O)Nc2cc(C)on2)cc1 (configuration not stated)	5	0	i	-2	2	1	6	x
COc1ccc(NC(=O)C2CC(c3c(F)cccc3Cl)=NO2)cc1 (configuration not stated)	-11	1	i	0	-5	-1	0	-5
CCSc1nnc(NC(=O)C(C)(C)C)s1	-36	-20	i	4	6	4	-9	-13
O=C(CNC(=O)c1ccccc1Cl)N/N=C/c1ccc2c(c1)OCO2	-4	-11	i	0	7	1	2	14
CCCC(C(=O)NC1CCCC1)N(CCN(CC)CC)C(=O)c1snc(C(N)=O)c1N (configuration not stated)	-12	x	i	1	0	2	-5	-6
